Assay outcomes from PubChem BioAssay.
Env fusion inh = blocks HIV Env-driven cell-cell fusion; HeLa-JRFL Env/CEM21 cell fusion, luciferase; AID 651610; inhibition, % at 12.3 µM; 1.1% of 360,000 active;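 active means mean replicate inhibition score of at least 50 and every replicate individually at or above 50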;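 further: 0% = plate neutral controls and 100% = maraviroc near 300 nM; one replicate is shown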
CSC inhib = blocks cancer stem cells | 1.1% of 300,000 active | cancer stem cell-like cells viability, luminescence | inhibition, % at 7.5 µM;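 active means mean at 75% or more and at least half the replicates too; tested in HMLE shEcad cells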;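 further: 0% = median of negative and 100% = median of positive control wells; the first replicate is given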
UUG fidelity = modulators of start codon recognition fidelity in yeast | S. cerevisiae UUG-firefly luciferase reporter, luminescence/redox ratio | 0.13% of 350,000 active | activity score, % at 18.7 µM;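 active means replicate mean at a twofold rise or more, about +100% in these data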;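 further: firefly luciferase made from a UUG start codon reports start codon fidelity; reporter light over untreated wells divided by growth signal over untreated wells; some hits fall short of that in this replicate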
MT1-MMP act inh = blocks activation of human MT1-MMP. AID 651647. HT1080 RFP-PRO-GFP cells, GFP/RFP ratio fluorescence, overnight; percent of plate control window, DMSO zero. GFP/RFP ratio change, % at 20 µM. 0.061% of 360,000 active;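 active means GFP/RFP ratio change of at least 30% with cell ATP level not reduced by more than half and red fluorescence within 50% of control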; further: strong numbers were not always called active
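Compound: 20 µM single dose, 1% DMSO / System: HT1080 RFP-PRO-GFP cells / Controls: DMSO and RFP-L50D-GFP cell wells / Read-out basis: GFP/RFP fluorescence ratio / Schedule: overnight compound exposure at 37 °C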
PABP polyA inh = blocks human PABP binding to poly(A) RNA; AID 2014; fluorescence polarization; inhibition, % at 35 µM; P11940; 1% of 290,000 active;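 active means 50% or more with normal probe brightness, or confirmed in later tests; about a fifth of its hits are not listed in these tables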;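 further: calls also rest on retests at 20 µM and on dose response follow-up; controls were probe without protein and protein plus probe with vehicle; some compounds called inactive have numbers as strong as hits; many hits fall short of the cut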
Target sequence (P11940 whole entry, looked up): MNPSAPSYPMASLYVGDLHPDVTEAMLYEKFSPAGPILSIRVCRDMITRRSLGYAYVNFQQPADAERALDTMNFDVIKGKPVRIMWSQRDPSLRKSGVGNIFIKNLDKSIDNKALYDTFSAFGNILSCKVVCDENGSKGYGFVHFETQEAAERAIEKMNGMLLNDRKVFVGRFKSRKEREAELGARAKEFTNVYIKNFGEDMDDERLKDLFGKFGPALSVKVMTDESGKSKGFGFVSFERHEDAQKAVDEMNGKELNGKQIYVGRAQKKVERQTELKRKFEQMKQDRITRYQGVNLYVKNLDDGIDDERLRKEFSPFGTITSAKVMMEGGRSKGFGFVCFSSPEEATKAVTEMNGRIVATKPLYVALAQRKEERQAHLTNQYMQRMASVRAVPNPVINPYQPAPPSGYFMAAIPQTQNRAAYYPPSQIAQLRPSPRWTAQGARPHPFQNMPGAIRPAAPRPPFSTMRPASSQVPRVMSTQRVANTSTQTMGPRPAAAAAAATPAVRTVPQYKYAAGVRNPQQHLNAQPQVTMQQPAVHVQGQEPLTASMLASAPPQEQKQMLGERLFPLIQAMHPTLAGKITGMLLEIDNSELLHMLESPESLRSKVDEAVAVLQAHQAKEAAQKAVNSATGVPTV
Rce1 inh = inhibitors of yeast Ras-converting enzyme. 0.27% of 290,000 active. yeast membranes, quenched prenylated peptide cleavage fluorescence. AID 2563. calls only. Q03530;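 active means fall in fluorescence gain of 50% or more versus controls, with final raw signal at or below 3038400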;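 further: plate controls were neutral control wells for no effect and wells lacking membranes for full effect; tested at 10 µM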
eIF4H FP inh = inhibitors of RNA binding by human eIF4H | Q15056 | eIF4H fluorescence polarization binding assay | inhibition, % at 35 µM | 0.94% of 290,000 active;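 active means 50% or more with normal probe brightness, or confirmed in later tests; about a fifth of its hits are not listed in these tables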;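 further: calls also rest on retests at 20 µM and on dose response follow-up; 0% = protein and probe with vehicle and 100% = probe without protein; strong numbers were not always called active; many hits fall short of the cut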
eIF4H FP inh retest = recorded beside eIF4H FP inh, whose call it bears; inhibition, %; compound at 20 µM; confirmation average;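 mean of two retest wells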
PABP polyA inh retest = second read-out of PABP polyA inh, no call of its own (marks repeat the call); inhibition, %; compound at 20 µM; confirmation repeats;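 mean of two retest wells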
MT1-MMP act inh RFP = also measured in MT1-MMP act inh; calls as there; RFP signal change, %; measured here: RFP expression control read;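 0 = vehicle wells; hits needed this value within 50% of zero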
Starred values were filed as active, the others as inactive; i = inactive; · = no result given; & = joins results of further samples.

SMILES | Env fusion inh | CSC inhib | UUG fidelity | MT1-MMP act inh | MT1-MMP act inh RFP | PABP polyA inh | Rce1 inh | eIF4H FP inh | others
COc1ccc(C(CNC(=O)Cc2cc(OC)c(OC)c(OC)c2)N2CCCC2)cc1 (configuration not stated) | -47 | 12 | -13 | -5 | 3 | 0 | · | 6
CC(=O)N(c1ccc(C(F)(F)F)cc1)S(=O)(=O)c1ccc(N2C(=O)CCC2=O)cc1 | -1 | 19 | 4 | -3 | -5 | 1 | i | -10
Cc1ccc(C(=O)NCCOc2cccc(C)c2)cc1 | -4 | 0 | · | -5 | -4 | -4 | i | -9
CCOC(=O)N1CCN(C(=O)C2CCN(S(=O)(=O)c3c(C)cc(C)cc3C)CC2)CC1 | -38 | 10 | 4 | 3 | 0 | -3 | i | -5
COCCCNC(=O)C(=O)NCCCOC(C)C | 8 | 2 | -12 | 3 | 3 | 7 | i | -2
CC(C)OC(=O)c1ccc(S(N)(=O)=O)o1 | 9 | · | -30 | 1 | 3 | -6 | i | -9
CC(C)NC(=O)COc1coc(CN2CCN(Cc3ccccc3)CC2)cc1=O | 3 | 9 | -2 | 3 | 0 | -13 | i | 0
Cc1ccccc1CCNC(=O)C1CCC(=O)N(C2CCCCCC2)C1 (configuration not stated) | -10 | 0 | 6 | -1 | -1 | 3 | i | 13
CCC(=O)Nc1ccc(Cl)c(NC(=O)C(C)C)c1 | · | -25 | -13 | -4 | 4 | -7 | i | -7
COc1ccc(CNC(=S)Nc2ccc(S(N)(=O)=O)cc2)cc1 | 14 | 6 | -24 | 3 | -3 | 0 | i | 4
CCCc1nnc(SCC(=O)Nc2cc(C)on2)n1CCOC | 2 | 1 | -17 | 3 | 6 | 0 | i | -16
COc1cc(-c2noc(C)c2-c2ccc(N(C)C)nc2)cc(OC)c1OC | -228 | 70 | 0 | 28 | 2 | 18 | i | 12
COc1ccc(OC)c(C2=NOC(C(=O)Nc3cc(C)on3)C2)c1 (configuration not stated) | -14 | 5 | -5 | 5 | 5 | -4 | i | 1
O=c1c2c(ncn1Cc1ccccc1)nc1n2CCC1 | 8 | 1 | · | 2 | 0 | 31 | i | -8
CC(C)(C)NC(=O)CN(Cc1cccs1)C(=O)CCN1CCc2ccccc21 | 22 | 6 | · | 26 | 19 | 10 | · | 5
O=C(CSCC(=O)N1CCOCC1)Nc1nc(-c2ccccc2)cs1 | -12 | -9 | · | 2 | -1 | -1 | · | -4
COc1ccc(OC)c(N(CC(=O)NCCSC2CCCCC2)S(=O)(=O)c2ccccc2)c1 | 58* | 11 | -6 | -3 | -13 | 16 | i | -13
Cc1ccc(S(=O)(=O)NCCCNS(=O)(=O)c2ccc(C)cc2)cc1 | -3 | -13 | 2 | -3 | -4 | · | · | ·
Cc1nc2sccn2c(=O)c1S(=O)(=O)N1CCN(c2cccc(Cl)c2)CC1 | -5 | 6 | -9 | -2 | -4 | 1 | i | 0
O=C(N1CCCCC1)N1CCN(S(=O)(=O)c2ccccc2)CC1 | 1 | -2 | -14 | -1 | 0 | -3 | i | -4

As a short view, 7 of the compounds above:
SMILES | Env fusion inh | CSC inhib | UUG fidelity | MT1-MMP act inh | MT1-MMP act inh RFP | PABP polyA inh | Rce1 inh | eIF4H FP inh | others
CCCc1nnc(SCC(=O)Nc2cc(C)on2)n1CCOC | 2 | 1 | -17 | 3 | 6 | 0 | i | -16
COc1cc(-c2noc(C)c2-c2ccc(N(C)C)nc2)cc(OC)c1OC | -228 | 70 | 0 | 28 | 2 | 18 | i | 12
COc1ccc(OC)c(C2=NOC(C(=O)Nc3cc(C)on3)C2)c1 (configuration not stated) | -14 | 5 | -5 | 5 | 5 | -4 | i | 1
O=c1c2c(ncn1Cc1ccccc1)nc1n2CCC1 | 8 | 1 | · | 2 | 0 | 31 | i | -8
CC(C)(C)NC(=O)CN(Cc1cccs1)C(=O)CCN1CCc2ccccc21 | 22 | 6 | · | 26 | 19 | 10 | · | 5
O=C(CSCC(=O)N1CCOCC1)Nc1nc(-c2ccccc2)cs1 | -12 | -9 | · | 2 | -1 | -1 | · | -4
COc1ccc(OC)c(N(CC(=O)NCCSC2CCCCC2)S(=O)(=O)c2ccccc2)c1 | 58* | 11 | -6 | -3 | -13 | 16 | i | -13

Next section.
SMILES | Env fusion inh | CSC inhib | UUG fidelity | MT1-MMP act inh | MT1-MMP act inh RFP | PABP polyA inh | Rce1 inh | eIF4H FP inh | others
CCc1nc2ccccc2c(C(=O)OCc2nnc(-c3ccccc3)o2)c1C | 20 | 12 | -7 | -7 | -1 | -2 | i | -4
COc1ccc(C(=O)N/N=C(\C)CC(=O)N2CCN(C=O)CC2)cc1 | -475 | 9 | · | 1 | 1 | -7 | i | -3
O=C1NC2(Nc3ccccc31)C(=O)Nc1ccc(Br)cc12 (configuration not stated) | -14 | 3 | 1 | -5 | -2 | 5 | i | 0
COc1cc(/C=C2/C(=N)N3N=C(CC(=O)N4CCOCC4)SC3=NC2=O)ccc1OC(C)c1ccccc1 (configuration not stated) | -19 | 2 | 0 | -2 | 1 | -5 | i | -2
CCOC(=O)N1CN(C(=O)OCC)CN(C(=O)OCC)C1 | -12 | -2 | -9 | 4 | 3 | 7 | i | 1
Cc1ccc(C(C)C)cc1S(=O)(=O)NC1CC(C)(C)NC(C)(C)C1 | 6 | -2 | -31 | 8 | -6 | 14 | · | 26
CCNc1ccc(C(=O)OCC(=O)N2CCCC2)cc1[N+](=O)[O-] | 4 | 1 | -9 | 6 | 5 | -7 | i | -5
Cc1ccc(/C=C/C(=O)OCC(=O)NCCN2C(=O)CSC2=O)cc1 | 1 | -4 | · | 1 | -1 | -14 | i | -7
CC(=O)N1Cc2cc(N)ccc2Oc2ccccc21 | 0 | -1 | -18 | 2 | 5 | 15 | i | 4
COc1ccc(C(=O)Nc2ccc(-c3n[nH]c(=S)o3)cc2)cc1OC | 9 | -5 | -10 | 1 | -2 | 21 | i | -5
CCOc1ccc(-c2nc(C)sc2CC(=O)O)cc1 | · | -7 | -28 | -1 | 0 | 1 | i | -1
COC(=O)c1cc(C(=O)NCCN2C(=O)S/C(=C\c3cccs3)C2=O)cc([N+](=O)[O-])c1 | · | 11 | · | -4 | -7 | -8 | i | -18
COc1ccc(OC)c(C2C3=C(CCCC3=O)Nc3c2c(=O)n(C)c(=O)n3C)c1 (configuration not stated) | 6 | 3 | -14 | 0 | 5 | 27 | i | -7
O=C1CC(C(=O)Nc2ccc(F)c(Cl)c2)N=C(N2CCCCC2)N1 (configuration not stated) | 36 | · | -9 | 6 | 1 | -6 | i | 2
CCOC(=O)NC(=O)COC(=O)CNC(=O)c1ccc(OCC)c(OCC)c1 | 19 | -19 | · | -1 | -1 | 7 | i | 0
COc1ccc(C2NC(=O)NC(C)=C2[N+](=O)[O-])cc1OC (configuration not stated) | 6 | -1 | · | -1 | 3 | 5 | i | -4
Cc1cc(C)nc(N2CCC(C(=O)NCc3cccc(C(F)(F)F)c3)CC2)n1 | · | -15 | -18 | -2 | 2 | -1 | i | 5
COC(=O)[C@H](CCSC)NC(=O)NCCc1ccccc1F | -11 | -2 | 5 | 7 | 3 | -11 | i | -4
CCNC(=O)n1nccc1C(C)Oc1ccccc1 (configuration not stated) | -36 | -29 | -7 | -2 | -9 | 27 | i | 62 | eIF4H FP inh retest=20;PABP polyA inh retest=22
COc1ccc(NC(=O)CN2C(=O)COc3ccc(C)cc32)cc1 | -13 | -19 | -12 | -3 | -1 | 10 | i | 4
Cc1ccc(OC(=O)N(C)C[C@@H]2OCc3cn(nn3)CCCC(=O)N([C@H](C)CO)C[C@H]2C)cc1 | 1 | · | -10&14 | 2 | 7 | · | · | ·
O=C(NCCc1c[nH]c2ccccc12)C(=O)Nc1ccccc1 | -56 | 81* | -7 | -1 | -2 | 5 | i | 1
COC(C[C@@H]1O[C@@H]1[C@@H](O)[C@H](C)OCc1ccccc1)OC | 25 | · | -7 | 9 | 4 | 3 | i | -7
CCN(Cc1ccccc1)C(=O)C1CCN(CC2CC=CCC2)CC1 (configuration not stated) | · | 32 | -19 | 0 | 3 | -3 | i | 2
C(=N\n1cnnc1)/c1nc2ccccc2[nH]1 | · | 11 | -6 | -7 | 1 | 8 | i | 9
CCOc1ccc(OCC)c(NC(=O)C2CCCN(S(=O)(=O)c3c(C)n[nH]c3C)C2)c1 (configuration not stated) | -9 | -17 | -10 | 3 | 1 | 4 | i | -2
CCCOC1CCCN(Cc2nc(-c3cnccn3)no2)C1 (configuration not stated) | 3 | -10 | 12 | 2 | 3 | -6 | i | -14
CCSCCOC(=O)C1=C(C)NC(=O)NC1c1cccc(OC)c1OC (configuration not stated) | · | -16 | 10 | 3 | -3 | 2 | · | 7
COc1ccc(CCn2c(=N)c(C(=O)NC3CCCC3)cc3c(=O)n4cccc(C)c4nc32)cc1 | -1 | -3 | -13 | 2 | 3 | -2 | i | -1
COc1ccc(-c2nnc3ccc(SCC(=O)Nc4nc5ccc(C)cc5s4)nn23)cc1OC | 12 | · | · | -1 | -4 | -17 | i | -7
CCCC(=O)N=c1sc2cccc(F)c2n1C | -34 | -1 | 6 | 0 | 4 | 10 | i | -1
COc1cc(OC)c(C(=O)CCC(=O)O)cc1OC | · | 35 | -12 | 8 | 0 | 4 | i | 3
COc1cc(-c2cc(C(F)(F)F)n3ncc(C(=O)O)c3n2)cc(OC)c1OC | · | -16 | 9 | 5 | 1 | -2 | i | 10
Cn1c(SCC(=O)NNC(=O)c2ccccc2O)nnc1-c1ccccc1 | 0 | 63 | · | 3 | 3 | -9 | i | 11
COCCNC(=S)N(CCc1c(C)[nH]c2ccc(Cl)cc12)Cc1cccs1 | 18 | 79* | -8 | -2 | -13 | -4 | i | 3
COC(=O)CN1C(=O)COc2ccc(S(=O)(=O)NCc3ccc(F)cc3)cc21 | 1 | 1 | -21 | 8 | 4 | 8 | i | -2
CN1CCC=C(C(=O)N2c3ccccc3Sc3ccc(Cl)cc32)C1 | 14 | 9 | · | -9 | 0 | 2 | i | -8
CCN(CC)S(=O)(=O)c1ccc(NC(=O)COC(=O)c2ccc(NC(=O)CC#N)cc2)cc1 | -5 | -7 | · | 0 | 6 | 6 | i | -4
O=C1CN(C(=O)CSc2nnc3ccccn23)c2ccccc2N1 | 4 | 4 | · | -2 | 2 | 3 | i | -8
CCOC(=O)/C(C)=N/NC(=O)c1cccc([N+](=O)[O-])c1 | 16 | -2 | · | 2 | 1 | -12 | i | -5
Cc1nnc(SCC(=O)NC2CC2)s1 | 5 | -8 | -10 | 0 | 1 | 12 | i | 0
Cc1ccc2nc(-c3ccc(SCC(=O)Nc4cc(C)on4)nc3)[nH]c2c1 | · | -2 | -11 | 8 | 0 | -3 | i | -3
CCOc1ccc2[nH]c(=O)c(CN(Cc3ccco3)C(=O)c3ccc(Br)cc3)cc2c1 | · | · | · | -10 | -14 | 18 | i | -3
COC(=O)c1ccc(C(=O)OC)c(NC(=O)CSc2cccc[n+]2[O-])c1 | -1 | · | -26 | -1 | 3 | 10 | i | -10
CCCCOc1ccc(C(=O)Nn2cnnc2)cc1 | -17 | 2 | 1 | 0 | 3 | -3 | i | -2
Cc1nn(Cc2ccccc2)c(Cl)c1/C=C/C(=O)OCC(=O)NC(C)C(C)C (configuration not stated) | -6 | -1 | · | 3 | 2 | 33 | i | -10
O=C(NN=C1CCCCC1)c1ccccc1OCc1ccc(F)cc1 | 4 | · | · | -1 | 2 | -3 | i | 1
CCN(CC)C(=O)C1CCCN(c2ccc([N+](=O)[O-])cc2/C=N/NC(=O)c2ccc([N+](=O)[O-])cc2)C1 (configuration not stated) | -2 | -14 | -17 | 1 | -3 | -2 | i | 3
